High-throughput results: PubChem BioAssay, National Center for Advancing Translational Sciences (NCATS)
Cruzain inh noDet: inhibitors of Trypanosoma cruzi cruzain without detergent | P25779 | purified cruzain, Z-FR-AMC fluorescence, no detergent | Potency, µM, for inactives: max response, negative = inhibition, most hits filed as inhibitors | actives 2.3% (n = 200,000); active = well fitted curve in the direction sought with a large enough effect; inconclusive = small, poorly fitted or top-dose-only effect, or another doubt; inactive = no such curve, though single readings can be large; an effect the other way counts as inactive or inconclusive;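 also: plate controls were enzyme without inhibitor for no effect and buffer without enzyme for full effect; nearly all actives have a fitted effect of over 40% in size; top concentration of the series not given in the record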
Target sequence (P25779 123-467 limits assumed): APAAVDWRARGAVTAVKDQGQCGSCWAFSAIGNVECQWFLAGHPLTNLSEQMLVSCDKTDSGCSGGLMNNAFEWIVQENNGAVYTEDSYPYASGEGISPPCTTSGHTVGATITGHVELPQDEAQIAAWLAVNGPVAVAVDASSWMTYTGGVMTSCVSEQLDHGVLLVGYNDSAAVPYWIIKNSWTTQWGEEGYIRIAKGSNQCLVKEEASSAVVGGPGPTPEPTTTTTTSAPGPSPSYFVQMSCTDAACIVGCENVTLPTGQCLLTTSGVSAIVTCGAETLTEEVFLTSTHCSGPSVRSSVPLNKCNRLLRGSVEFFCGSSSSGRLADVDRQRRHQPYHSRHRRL
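Detergent-free condition (0.00005% Triton X-100) in acetate buffer pH 5.5 with DTT. 1.5 nM enzyme and compound were pre-mixed 15 min, then 2 uM Z-FR-AMC substrate added; reaction progress from fluorescence change between first and third reads (60 s).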
LASV entry inh: inhibitors of Lassa virus binding or cell entry; actives 1.2% (n = 300,000); Lassa virus pseudotype entry inhibition, cell reporter; control for the full effect not named in the record; Potency, µM (highest dose often 37.9 µM), for the others: at the highest dose activity change, negative = inhibition, hits mostly inhibitors; active means well fitted inhibition curve with a large enough effect; inconclusive means small, poorly fitted or top-dose-only effect, or effect the other way; inactive means flat fitted curve, though single readings scatter; tested in HEK293 cells; also: % is scaled to controls: 0 for no effect and ±100 for the full control effect; nearly all actives have a fitted effect of over 50% in size; luciferase read-out
RE007 growth inh: less growth of the S. pombe RE007 Vpr strain; S. pombe RE007 Vpr strain, BacTiter-Glo ATP luminescence, 24 h; control for the full effect not named in the record; Potency, µM (doses to about 92.2 µM), for inactives: top-dose activity change, negative = less growth; actives 0.21% (n = 360,000); AID 651644; active = well fitted falling curve with a large enough effect; inconclusive = small, poorly fitted or top-dose-only effect; inactive = no such curve, though single readings can be large or run the other way;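 also: % is scaled to controls: 0 for no effect and ±100 for the full control effect; nearly all actives have a fitted effect of over 50% in size; the assay follows cell death caused by Vpr and the record does not say whether a fall means rescue or toxicity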
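Fission yeast strain RE007, carrying one chromosomally integrated HIV-1 vpr copy, was seeded at OD 0.01 in PMG+AL medium with 23 nL pinned compound. After 24 h at 30 °C and 99% humidity, viability was read by BacTiter-Glo luminescence.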
Cruzain Triton: cruzain (T. cruzi) inhibition with detergent | P25779 | purified cruzain, Z-FR-AMC fluorescence, 0.01% Triton | Potency, µM, without a hit: max response, negative = inhibition, usual class: inhibitors | actives 0.43% (n = 200,000) | AID 1478; active = well fitted curve in the direction sought with a large enough effect; inconclusive = small, poorly fitted or top-dose-only effect, or another doubt; inactive = no such curve, though single readings can be large; an effect the other way counts as inactive or inconclusive;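 also: plate controls were neutral wells for no effect and buffer without enzyme for full effect; nearly all actives have a fitted effect of over 40% in size; top concentration of the series not given in the record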
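Detergent-containing arm of a paired screen for aggregation-based inhibition: 0.01% Triton X-100 present. Cruzain at 1.5 nM cleaved 2 uM Z-FR-AMC at pH 5.5 with 5 mM DTT; AMC fluorescence gain over 60 s measured activity.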
MARV entry inh: blocks Marburg virus binding to or entry into cells; AID 540276; Potency, µM (top dose mostly 37.8 µM), for inactives: at the highest dose activity change, negative = inhibition, hits mostly inhibitors; actives 1.8% (n = 300,000); Marburg virus pseudotyped entry inhibition, cell reporter; control for the full effect not named in the record; about a third of the inactives were read at about 46 µM; active = well fitted inhibition curve with a large enough effect; inconclusive = small, poorly fitted or top-dose-only effect, or effect the other way; inactive = flat fitted curve, though single readings scatter; tested in HEK293 cells; about a fifth of its hits are not listed in these tables; also: % is scaled to controls: 0 for no effect and ±100 for the full control effect; luciferase read-out
SARS PLP yeast: blocks SARS-CoV papain-like protease in a yeast assay; S. cerevisiae expressing SARS-CoV PLpro, growth rescue; control for the full effect not named in the record; Potency, µM (titrated, usually from 32.9 µM), for inactives: top-dose activity, positive = growth rescue; actives 0.19% (n = 330,000); AID 485353; also: 0% is about no effect; nearly all actives have a fitted effect of over 55% in size; growth read by luminescence after 48 h
NS1 inh: blocks influenza NS1 protein function; S. cerevisiae slowed by influenza A NS1, growth recovery by OD600; actives 0.4% (n = 270,000); Potency, µM (top dose mostly 46.1 µM), inactives show at the top dose activity, positive = more growth; also: actives are rising curves; nearly all actives have a fitted effect of over 50% in size
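Recovery from NS1-induced slow growth read by OD600 in budding yeast switched to galactose assay medium (pH 6.0, -URA) at 1:100 dilution. Compound 23 nl per well; the matching strain lacking NS1 serves as control.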
StopGo reporter: FMDV 2A StopGo reporter, luciferase signal | human cells with a luciferase reporter of 2A StopGo recoding; control for the full effect not named in the record | Potency, µM (series often up to 57.9 µM), inactives show top-dose signal change, negative = less light | actives 1.2% (n = 410,000); active = well fitted falling curve with a large enough effect; inconclusive = small, poorly fitted or top-dose-only effect; inactive = no such curve, though single readings can be large or run the other way; tested in HEK293T cells; also: % is scaled to controls: 0 for no effect and ±100 for the full control effect; nearly all actives have a fitted effect of over 45% in size; luciferase light after 4 h
An asterisk follows results filed as active; ? = inconclusive; · = not tested or not shown; & = joins results of further samples; [ ] = another dose, or the depositor's remark. Unless noted, calls follow the shape of the dose curve; as a rule, active means well fitted rising curve with a large enough effect; inconclusive means small, poorly fitted or top-dose-only effect; inactive means no such curve, though single readings can be large or run the other way. Potency is read from the fitted curve at half-maximal effect.

SMILES | Cruzain inh noDet | LASV entry inh | RE007 growth inh | Cruzain Triton | MARV entry inh | SARS PLP yeast | NS1 inh | StopGo reporter
CCC1CCCCN1C(=O)CCC(=O)Nc1nnc(C(F)(F)F)s1 (stereo not given) | · | · | 1% | · | · | 3% | -14% | -1%
CC1=C(C#N)C(=O)N(C)C(C)(C)C1 | 2% | 7% | -23% | 3.7% | 10% | -3% | -7% | -10%
CC(NC(=S)NCc1ccc(F)cc1)C12CC3CC(CC(C3)C1)C2 (stereo not given) | · | ? | -13% | · | ? | 1% | 2% | -19%
Cc1c(C)c(C)c(S(=O)(=O)n2[nH]c(=O)c(CCO)c2C)c(C)c1C | · | ? | 9% | · | ? | 1% | · | -10%
CC1CCN(S(=O)(=O)c2cccc(C(=O)NC3CCCC3)c2)CC1 | · | -30% | -9% | · | -16% | 7% | 17% | 11%
COc1ccc(N(CC(O)Cn2c(C)nc3ccccc32)S(=O)(=O)c2ccccc2)cc1 (stereo not given) | 9% | -7% | -12% | -0.2% | ? | -3% | · | 9%
Cc1cc(NC(=O)CCC(=O)N(c2ccccc2)C(C(=O)NC2CCCC2)c2cccs2)no1 (stereo not given) | 3% | 0% | 0% | 1.9% | -3%&4% | 5% | -10% | 10%
CC(=O)Oc1ccc(-c2nc3cc(Cl)ccc3c(=O)o2)cc1 | · | 14%[46.1 µM] | 10% | · | 28%[46.1 µM] | 1% | 9% | 4%
Cc1ccc(-c2c(C(=O)NC(C)C)oc(=O)c3ccccc23)cc1 | · | -8%[46.1 µM] | 8% | · | 3%[46.1 µM] | 0% | · | -6%
COc1cccc(N2CC(C(=O)Nc3c(C(N)=O)oc4ccccc34)CC2=O)c1 (stereo not given) | · | -2% | 1% | · | 0% | -2% | · | -20%
COc1ccc(CNC(=O)c2nnn(CC(=O)Nc3cc(C)cc(C)c3)c2N)cc1 | ? | -6%[46.1 µM] | -1% | 0.1% | ? | -3% | 7% | 1%&2%
CCC(C)Oc1ccc(C(=O)Nc2ccc(CN3CCOCC3)cc2)cc1 (stereo not given) | · | · | 18% | · | · | -5% | -19% | ?
COc1ccc(C(=O)c2cc(C(C)=O)c(Nc3ccccc3)s2)cc1 | 4% | 9% | 24% | -4.0% | ? | -10% | -7% | 0%
Cc1ccc(OCC(=O)Nc2ccc3nc(SCC(=O)Nc4ccc(C)cc4C)sc3c2)cc1 | 1% | 15%[46.1 µM] | · | -2.5% | -17%[46.1 µM] | · | · | 0%
O=[N+]([O-])c1ccc(N/N=C/c2ccccc2)c(F)c1 | -1% | ? | · | -14% | ? | -9% | -6% | 34%[activator]
CCCCCCn1c(=O)c(C(=O)Nc2cccc(C)n2)c(O)c2ccccc21 | · | · | 7% | · | · | 0% | -11% | -2%
Cc1c(NS(=O)(=O)c2cccc(C(=O)Nc3cccc(F)c3)c2)c(=O)n(-c2ccccc2)n1C | · | ? | -1% | · | ? | 3% | · | -16%
O=C(COc1ccc(Cl)cc1)OCC(=O)N1CCCCCC1 | 4% | -7% | 2% | 1.1% | -18% | -3% | -18% | -13%
Cc1cccc(NC(=O)CCn2nc(C)cc2C)c1 | 3% | -9% | -11% | 2.1% | 11% | -7% | -3% | 7%
CCSc1nc2sc3c(c2c(=O)[nH]1)CCc1ccccc1-3 | ? | · | 7% | -5.7% | · | 16% | 7% | -11%
CNc1oc(-c2ccc(C)cc2)nc1P(=O)(c1ccccc1)c1ccccc1 | -28% | 21µM* | 5% | 11µM* | ? | -2% | 3% | -18%
CC(C)OC(=O)c1c(NC(=O)c2ccco2)sc2c1CCCCC2 | -24% | -7% | 11% | -15% | 23%[46.1 µM] | 12% | ? | -1%
Cc1cc2c(cc1NS(=O)(=O)c1ccc(NC(=O)CC(C)C)cc1)n(C)c(=O)c(=O)n2C | ? | -21%[46.1 µM] | · | 0.0% | · | · | · | -27%
Cc1ccc(S(=O)(=O)NCc2ccc3c(c2)OCO3)cc1C | · | · | 13% | · | · | -6% | -56% | 11%
CCOC(=O)[C@H]1[C@H]2COc3cc(OC)ccc3[C@@H]2N2C(=O)N(c3ccc(Br)cc3)C(=O)[C@@]12C | · | · | -7% | · | · | -3% | 22% | 0%
The listing continues.
SMILES | Cruzain inh noDet | LASV entry inh | RE007 growth inh | Cruzain Triton | MARV entry inh | SARS PLP yeast | NS1 inh | StopGo reporter
Cn1c(=O)c2c(O)c(Cc3ccccc3)c(=O)[nH]c2n(C)c1=O | -14% | ? | 5% | 0.6% | 25% | -6% | 10% | 34%[activator]
COCCNC(=O)Cn1nc(-c2ccccc2F)ccc1=O | · | ? | 1% | · | 18% | 6% | 12% | 5%
CSc1nnc(CCCCCNC(=O)OC(C)(C)C)o1 | · | ? | -5% | · | -9% | 0% | -2% | -1%
Cc1cc(NC(=O)COc2ccccc2C)ccc1NC(=O)c1ccco1 | · | -1%[46.1 µM] | -10% | · | ? | -20% | -22% | 1%
O=C(NCCCc1nc2ccccc2n1Cc1c(F)cccc1Cl)C1CCCCC1 | -10% | -1%[46.1 µM] | · | -1.4% | -5%[46.1 µM] | · | · | -4%
COC(=O)c1c(C)[nH]c(C=Nc2ccc(OC)cc2)c1C | · | -2%[46.1 µM] | 6% | · | ? | 1% | 1% | 7%
COc1ccc(NC(=O)c2cc3ccccc3[nH]2)cc1 | · | · | -4% | · | · | 1% | -15% | 79%[activator]
CCn1c(SCc2ccc(F)cc2Cl)nc(=O)c2c(C(=O)OC)cc(C3CC3)nc21 | 11% | ? | · | -4.1% | · | · | · | ?
O=C(CN1C(=O)/C(=C/c2ccccc2F)Sc2ccccc21)N1CCN(c2ccccn2)CC1 | · | -3% | -5% | · | 0% | -13% | · | -16%
C=CCn1c(=O)c(C(=O)NC(C)c2ccccc2)c(O)c2ccccc21 (stereo not given) | · | · | -4% | · | · | 19% | -1% | -9%
CN(CC(=O)Nc1ccccc1Br)C(=O)c1ccc(-c2ccc(Cl)cc2)o1 | · | ? | -3% | · | ? | -3% | -19% | -14%
Cc1nc2cc(NC(=O)Nc3cccc(F)c3)ccc2n1C | · | · | -24% | · | · | -2% | 8% | -22%
Cc1nn(-c2ccccc2)nc1CNC(=O)CC(C)(C)C | · | · | -3% | · | · | 0% | -3% | -24%
O=C(Nc1ccc(Cl)cc1)c1cncs1 | · | ? | -7% | · | ? | -2% | -2% | 1%
CC(=O)Nc1cccc(C(=O)OCC(=O)Nc2c(C)nn(-c3ccccc3)c2C)c1 | · | 30% | 1% | · | 8%[46.1 µM] | -4% | · | -22%
N/C(Cn1cncn1)=N\OC(=O)c1ccc(Cl)cc1Cl | · | ? | 10% | · | 20%[46.1 µM] | -2% | · | -6%
COc1ccc(OC)c(-c2[nH]nc3c2C(c2ccco2)C(C#N)=C(N)O3)c1 (stereo not given) | -14% | -5% | -4% | -12% | -2% | 0% | 12% | -8%
Cc1ccc(C(=O)NCCCNCCCNC(=O)c2ccc(C)nc2)cn1 | -17% | 10% | -14% | -0.4% | 12%&12%[46.1 µM] | -5% | 6% | -18%
CCOC(=O)c1c(C)[nH]c(C)c1S(=O)(=O)N(C)Cc1ccco1 | · | · | 0% | · | · | 1% | -2% | -6%
COc1ccc(S(=O)(=O)Cc2ccc(C(=O)NC(C)C)o2)cc1 | -8% | -6% | 6% | -0.4% | 20% | ? | -6% | 1%
Cc1ccc(NC(=O)c2c(NC(=O)Cc3ccccc3)sc3c2CCCC3)cc1 | 6% | 10%[46.1 µM] | · | -3.2% | · | · | · | -9%
CCOC(=O)c1oc2ccccc2c1CN1CCN(C)CC1 | -9% | 3% | 5% | -0.9% | 22% | -25% | 11% | 0%
O=C(NNC(=S)NCC1CCCO1)c1cccc(S(=O)(=O)N2CCOCC2)c1 (stereo not given) | · | -9% | 1% | · | 14%[46.1 µM] | 0% | · | 34%[activator]
COc1ccc(C(=O)NC2(C(F)(F)F)C(=O)NC(C)=C2C#N)cc1OC (stereo not given) | -4% | -19%[46.1 µM] | · | 0.7% | · | · | · | 5%
COc1ccc([C@H]2[C@@H](C#N)[C@H](C#N)N3CCCN23)cc1 | -9% | 1% | -10% | 1.0% | 5% | 10% | 11% | 0%
Next entries follow.
SMILES | Cruzain inh noDet | LASV entry inh | RE007 growth inh | Cruzain Triton | MARV entry inh | SARS PLP yeast | NS1 inh | StopGo reporter
CC(C)(C)c1ccc(C(=O)N2CCN(CCNC(=O)C(=O)NCc3ccccc3)CC2)cc1 | 21% | 9% | -14% | 2.8% | -11% | -12% | -30% | -13%
COc1nccc(-c2ccc(F)cc2)c1C#N | · | 4% | 4% | · | 7%[46.1 µM] | 0% | · | -7%
Cc1nc2cc(Cl)c([N+](=O)[O-])cc2s1 | · | 11% | 4% | · | ? | 0% | -3% | -6%
Cc1ccc(S(=O)(=O)CCC(=O)OCC(=O)c2ccc(F)cc2)cc1 | · | 4% | 0% | · | 27% | 1% | · | -12%
COc1ccc(C2=NO[C@@H]3C(=O)N(c4c(C)cccc4C)C(=O)[C@H]23)cc1OC | 4% | 8% | -13% | -7.4% | 2% | 1% | -47% | -26%
O=C(OCc1cc(=O)n2nc(-c3cccs3)sc2n1)c1ccc(F)cc1 | 1% | 0%[46.1 µM] | · | -2.7% | · | · | · | -2%
CC1=CCC2C(=O)N(c3ccc(C(=O)Nc4ccccc4Cl)cc3)C(=O)C2C1 (stereo not given) | · | · | -5% | · | · | 0% | -3% | 0%
C=CCn1cc(C(=O)NCCOC)c(=O)c2cc(S(=O)(=O)N3CCCCCC3)ccc21 | · | · | -2% | · | · | -1% | 6% | -22%
O=C(c1ccnc(Cl)c1)N1CCCC(N2CCN(c3ccccc3F)CC2)C1 (stereo not given) | · | 7%[46.1 µM] | -26% | · | ? | 10% | 6% | -24%
